Assay outcomes: PubChem, several laboratories
YopH inh – YopH tyrosine phosphatase inhibitors, primary screen, biochemical, fluorescence Ex485/Em525; YopH tyrosine phosphatase [Yersinia enterocolitica]; inhibition, %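 (about 10 µM by stock and volumes)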; actives 0.16% (n = 140,000);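 active = inhibition of 50% or more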;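 also: controls were vehicle for no effect and minimum signal wells for full effect; inactives centre near -20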
Mtb H37Rv – M. tuberculosis H37Rv growth inhibitors, H37Rv strain (AID 1626); M. tuberculosis H37Rv growth inhibition; higher % means a stronger effect; inhibition, % at 10 µM; hits with a dose series show IC50 in µM; actives 0.95% (n = 220,000);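 active = confirmed in a dose series; inconclusive = inhibition above 80% but not taken into the dose series; inactive = below 80% or under 30% at every dose of the series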;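 also: bacteria incubated seven days before Alamar blue readout; 0% = bacteria only wells and 100% = bacteria with antibiotic wells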
RecA splice inh – Mtb RecA intein splicing inhibitors, primary screen, biochemical, fluorescence, HTS | inhibition, %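 (about 9 µM by stock and volumes)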 | cell-free RecA intein splicing | Protein RecA (Mycobacterium tuberculosis (strain ATCC 25618 / H37Rv)), P9WHJ3 | actives 0.75% (n = 290,000) | AID 2221, 2009; in the data active = inhibition above about 30%; inconclusive = no clear call, values can overlap the other calls;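 also: 0% = vehicle wells and 100% = reference inhibitor control wells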
Target sequence (P9WHJ3 whole entry, looked up, canonical isoform): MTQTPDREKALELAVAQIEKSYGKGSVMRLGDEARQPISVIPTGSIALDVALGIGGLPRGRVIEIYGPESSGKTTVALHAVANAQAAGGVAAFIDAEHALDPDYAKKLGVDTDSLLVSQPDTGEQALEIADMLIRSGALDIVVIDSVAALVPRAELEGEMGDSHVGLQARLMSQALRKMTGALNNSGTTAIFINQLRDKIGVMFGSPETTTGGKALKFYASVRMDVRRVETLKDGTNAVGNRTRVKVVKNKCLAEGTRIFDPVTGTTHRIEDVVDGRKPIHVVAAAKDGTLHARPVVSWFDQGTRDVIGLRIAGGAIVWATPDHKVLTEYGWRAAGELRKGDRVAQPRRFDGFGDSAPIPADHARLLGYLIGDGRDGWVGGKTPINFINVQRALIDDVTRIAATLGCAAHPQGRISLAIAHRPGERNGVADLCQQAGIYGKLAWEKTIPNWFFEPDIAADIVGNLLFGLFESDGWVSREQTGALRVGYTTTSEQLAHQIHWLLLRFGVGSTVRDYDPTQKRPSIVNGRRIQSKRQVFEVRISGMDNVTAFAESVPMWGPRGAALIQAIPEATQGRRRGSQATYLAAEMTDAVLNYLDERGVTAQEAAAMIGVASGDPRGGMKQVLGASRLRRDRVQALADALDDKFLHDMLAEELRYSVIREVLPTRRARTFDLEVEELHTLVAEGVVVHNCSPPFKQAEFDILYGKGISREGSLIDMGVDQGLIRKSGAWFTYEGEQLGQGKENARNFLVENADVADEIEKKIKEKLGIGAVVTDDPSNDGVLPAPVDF
Arbovirus anti – antivirals against arbovirus infection, primary screen, cell-based, full library, 10K replicate subset. inhibition, % at 10 µM. actives 0.37% (n = 200,000). arbovirus infection cell-based antiviral screen. AID 1251, 2008;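 active = inhibition from about 30%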;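 also: bluetongue infection of BSR cells; cell survival read as ATP light after 72 h; 0% = infected wells without compound and 100% = uninfected wells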
Mtb betalactam – beta-lactam sensitization of Mtb H37Rv, H37Rv. M. tuberculosis H37Rv growth with meropenem, percent inhibition; hits of this screen are not shown here. inhibition, % at 25 µM. actives 0.27% (n = 330,000). AID 434955, 2010;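 active = about 74% or more and at least 40 points above the plate without the antibiotic, then above 30% in a dose series; inconclusive = first-round hits that could not be retested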;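 also: growth measured after seven days incubation then overnight dye step; 0% = bacteria only wells and 100% = bacteria with antibiotic; twin plates without the antibiotic show which effects depend on it; some results filed as inactive read as strong as hits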
Arbovirus anti repeat – also measured in Arbovirus anti; calls as there; inhibition, %; measured here: 10K subset replicate screen; many hits read low in the repeat;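 first of two repeat runs on a subset; 0% = infected and 100% = uninfected wells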
* marks the source's active call; other numbers are inactive results; ? = inconclusive; . = no result given. This is a subset. The share of hits here may be higher or lower than overall.

The opening 3 entries (preview)
SMILES | YopH inh | Mtb H37Rv | RecA splice inh | Arbovirus anti | Mtb betalactam | others
COc1ccc(C2c3c(n[nH]c3C)CC(C)(O)C2C(C)=O)cc1OC (stereo unspecified) | -35 | 0% | 1.1 | -9 | -3
Cc1ccc(-c2cn3cccnc3n2)cc1NC(=O)c1ccc(Br)o1 | -11 | -6% | 6.1 | -1 | 97
CCOC(=O)N1CCN(C(=O)CN(c2ccc(OCc3ccccc3)cc2)S(C)(=O)=O)CC1 | 5 | 1% | 2.8 | 4 | 1

Results, previewed entries included:
SMILES | YopH inh | Mtb H37Rv | RecA splice inh | Arbovirus anti | Mtb betalactam | others
COc1ccc(C2c3c(n[nH]c3C)CC(C)(O)C2C(C)=O)cc1OC (stereo unspecified) | -35 | 0% | 1.1 | -9 | -3
Cc1ccc(-c2cn3cccnc3n2)cc1NC(=O)c1ccc(Br)o1 | -11 | -6% | 6.1 | -1 | 97
CCOC(=O)N1CCN(C(=O)CN(c2ccc(OCc3ccccc3)cc2)S(C)(=O)=O)CC1 | 5 | 1% | 2.8 | 4 | 1
CC(C)NC(=O)c1cc(-n2cnnc2)ccc1Cl | -21 | -9% | -1.0 | 3 | -2
CCCn1c(N)c(C(=O)CSc2nnc(C3CC3)n2Cc2ccccc2)c(=O)[nH]c1=O | -27 | -2% | 0.1 | 4 | -1
CCN(CC)c1ccc(/C=N/NC(=O)CNC(=O)C2COc3ccccc3O2)c(O)c1 (stereo unspecified) | . | . | -2.0 | . | -8
Cc1cc(C)n2nc(SCC(=O)c3ccccc3)nc2n1 | 25 | -1% | 0.2 | -2 | 11
COc1ccccc1C(=O)N(C1=NC(C)CS1)c1ccc(Cl)cc1 (stereo unspecified) | . | . | 8.8 | . | -15
N#Cc1nc(-c2ccc(Cl)cc2)oc1NCC1CCCO1 (stereo unspecified) | . | 6% | -2.1 | -7 | -4
CN(C)S(=O)(=O)c1cc(NC(=O)CN2CCOCC2)ccc1Cl | . | 1% | -6.5 | 19 | -9
CCOC(=O)N1CCC(NC(=O)CN2C(=O)C(CC)Oc3ccc(C)cc32)CC1 (stereo unspecified) | -21 | -8% | -2.0 | 8 | -10
Cc1ccc(S(=O)(=O)Cc2ccc(C(=O)NC3CCCCCC3)o2)cc1 | . | . | -2.1 | . | 0
COc1cc(/C=N/NC(=O)NC2CCCCC2)cc(OC)c1O | . | -4% | -1.6 | . | 28
CC1CCCCN1C(=O)c1cc(S(=O)(=O)N2CCCCC2)c[nH]1 (stereo unspecified) | . | . | 1.0 | . | -3
O=c1cccccc1NN=C1CCCCCC1 | . | 1% | -6.3 | . | 2
O=C(c1ccc(S(=O)(=O)N2CCOCC2)cc1)N1CCc2ccccc21 | . | . | -0.2 | . | -7
CCOc1ccc(N(CC(=O)NCCOc2ccc(C)cc2)S(=O)(=O)c2ccccc2)cc1 | . | . | 2.9 | . | ?
O=C(Nc1ccc(N2CCCC2)cc1)c1cc2ccccc2o1 | . | . | -1.0 | . | 6
O=C(NCCO)c1cccc(Nc2nc(-c3ccccc3)c3cc(Cl)ccc3n2)c1 | -37 | 3% | -15 | 6 | 90
O=c1[nH]c2cc3c(cc2cc1C(c1nnnn1CC1CCCO1)N1CCCCCC1)OCCO3 (stereo unspecified) | -8 | -2% | -3.0 | -3 | 4
Cc1ccc(CNC(=O)C2CC(c3ccccc3[N+](=O)[O-])=NO2)o1 (stereo unspecified) | -25 | -11% | -2.1 | -3 | -15
CSc1ccccc1OCc1cc(C(=O)N(C)C(C)c2ccccn2)no1 (stereo unspecified) | . | . | 0.6 | . | 0
O=S(=O)(O)c1nc2ccccc2n1Cc1ccc(Cl)cc1 | -33 | -6% | 1.0 | 12 | -17
Cc1ccc(CNC(=S)NC2CCCCC2)cc1 | . | . | 4.4 | . | 6
COc1ccccc1N1C(=O)N(C(C)=O)C2C1Nc1ccccc1N2C (stereo unspecified) | -6 | 6% | 12 | -5 | 5 | Arbovirus anti repeat=-4
Cc1ccc(CNC(=O)CCC2CCCN(C(=O)c3ccc4c(c3)OCO4)C2)o1 (stereo unspecified) | . | -1% | -0.3 | -3 | 1
CCCCN(C(=O)C1CCCO1)c1c(N)n(CC(C)C)c(=O)[nH]c1=O (stereo unspecified) | . | . | -1.6 | . | -3
Cc1ccc(S(=O)(=O)NC(CC(C)C)C(=O)N2CCCCCCC2)cc1 (stereo unspecified) | . | . | -1.7 | . | -4
CCN(CC)C(=O)N1CCN(C(=O)N2CCOCC2)CC1 | . | -5% | 1.0 | -1 | -3
CCCCCCCCCCC(=O)Nc1cccnc1 | . | 7% | -2.2 | 0 | -1
O=c1c(Sc2ccccc2)c(C(F)(F)F)[nH]n1-c1ccccc1 | -34 | -13% | 1.9 | 11 | 0
O=C(NCc1ccccc1)C1CCC(CNc2c(N3CCCCC3)c(=O)c2=O)CC1 (stereo unspecified) | -32 | . | -0.5 | -4 | 3
CC1(C)CC(=O)c2c(oc3cc(O)c(O)cc23)C1 | -31 | 1% | -5.4 | 4 | 4
Cc1ccc(OCc2nnc(SCC(=O)Nc3ccc4c(c3)OCO4)n2C)cc1 | -21 | -1% | . | -22 | 4
O=C(Nc1cccc(S(=O)(=O)Nc2ccccc2F)c1)c1ccc2ccccc2n1 | . | 92% | 6.1 | 12 | 30
Cc1ccc(S(=O)(=O)Nc2ccc(N3CCOCC3)cc2)cc1C | . | . | -5.3 | . | -10
CC(=O)c1ccc(N(CC(=O)NC2CCCC2)C(=O)CNC(=O)c2cccs2)cc1 | . | . | -4.8 | . | 5
CCCCSc1oc(-c2ccco2)nc1S(=O)(=O)c1ccccc1 | . | . | 12 | . | 1
Cc1cccc(NC(=O)[C@H](Cc2ccccc2)NC(=O)OCc2ccccc2)c1 | 5 | 8% | -3.2 | 3 | 8
N#CC1=C(SCc2ccccc2)NC(=O)CC1c1ccco1 (stereo unspecified) | -3 | -5% | 2.9 | -3 | -5
COc1cccc(CNC(=O)c2ccc(COc3ccccc3)cc2)c1 | . | . | -0.9 | . | 8
N#CCCN(C(=O)COC(=O)c1ccc2c(=O)n3c(nc2c1)CCC3)c1ccc(F)cc1 | . | 0% | -0.9 | 2 | -2
Cc1cccc(S(=O)(=O)NCCC(=O)OC(C)C(=O)NC(=O)NC2CCCCC2)c1 (stereo unspecified) | -40 | 1% | 2.6 | 9 | -4
CC1=CC(C)(C)n2c(O)c(C3=NC(=S)NC3=O)c3cc(OC(=O)c4cccc5ccccc45)cc1c32 | -33 | . | 1.9 | -4 | 88
Cc1ccccc1NC(=S)N(CCc1c(C)[nH]c2ccc(F)cc12)Cc1cccnc1 | . | 5% | 4.8 | 4 | 22
COCc1cc(=O)[nH]c(N2CCN(c3ccccc3OC)CC2)n1 | . | . | -0.9 | . | 83
O=C(CCS(=O)(=O)c1ccccc1)NC1CCCC1 | . | . | -1.8 | . | -21
COc1ccc(C)cc1NS(=O)(=O)c1cn(C)nc1C | . | -8% | -1.0 | 11 | 2
CCCOc1ccc(-c2c(C(=O)N/N=C/c3ccc(C)cc3)nnn2-c2nonc2N)cc1 | . | 2% | 0.8 | . | -5
CCOc1ccc(C(=O)Nc2ccc(S(=O)(=O)Nc3cc(C)on3)cc2)cc1 | . | . | -0.2 | . | 6
CC1CCCN(C(=O)Cc2cccc3ccccc23)C1 (stereo unspecified) | . | . | -1.7 | . | 5
CCn1c(O)c(N=NC(=O)C2C(=O)NCC2c2ccccc2)c2ccccc21 (stereo unspecified) | -35 | -21% | 1.5 | -3 | -7
CCOC(=O)c1ccc(NC(=S)N(CCCN2CCCC(C)C2)Cc2ccco2)cc1 (stereo unspecified) | -21 | ? | 3.4 | -14 | -2
Cc1cc(O)c(N=Cc2cc3c(cc2[N+](=O)[O-])OCO3)cc1C | . | . | -0.4 | . | 0
Cc1ccc(S(=O)(=O)CCNC(=O)Cc2ccccc2)cc1 | . | 2% | -2.0 | 5 | -2
COc1ccc(CNC(=O)CC2C(=O)NCCN2CC(C)(C)C)c(OC)c1 (stereo unspecified) | . | -3% | . | 0 | -3
CC(=O)Nc1ccc(S(=O)(=O)N2CCC(C(=O)c3ccc(F)cc3)CC2)cc1 | . | . | 2.0 | . | -4
COc1ccccc1/C=C\C(=O)NCC(=O)N/N=C/c1ccc(O)cc1O | . | 0% | -1.0 | . | 1
Cc1cc(C(=O)NC2CCCCC2)c(C)n1-c1ccc(F)cc1 | -27 | 7% | -2.8 | -6 | 5
Nc1n[nH]c2cccc(Cl)c12 | . | -8% | . | . | 0
The listing continues.
SMILES | YopH inh | Mtb H37Rv | RecA splice inh | Arbovirus anti | Mtb betalactam | others
c1ccc2c(c1)sc1nnnn12 | -2 | . | -0.2 | 6 | 3
COC(=O)NNC(=S)Nc1ccc(Br)cc1 | . | -3% | 4.3 | 2 | 0
COc1ccccc1CC(=O)Nc1ccc(-c2noc(COc3ccc(Cl)c(C)c3)n2)cc1 | 12 | -2% | -0.4 | 8 | -23
CCOC(=O)Nc1ccc2c(c1)Sc1ccccc1N2C(=O)CCN1CCOCC1 | 32 | 9% | -0.1 | 0 | 23
Cc1ccc(N2C(=O)CC(Nc3cccc4ccccc34)C2=O)cc1 (stereo unspecified) | . | 64% | 7.6 | . | 93
Cc1cc(C)c(C(=O)Cn2nc(C(=O)O)c3ccccc3c2=O)cc1C | . | -2% | . | . | -1
CCCOc1ccc(C2NC(=S)NC(c3ccccc3)=C2C(=O)Nc2ccc(C)cc2)cc1OC (stereo unspecified) | 1 | 17% | -1.7 | -3 | 19
Cc1nnc(SCCn2c(N3CCC(C)CC3)nc3c2c(=O)[nH]c(=O)n3C)s1 | 14 | 5% | -2.2 | 10 | -11
COc1ccc(OCC(=O)Nc2ccc(S(=O)(=O)N3CCCCCC3)cc2)cc1 | -17 | -6% | 0.4 | 3 | -3
COC(=O)c1sc(NC(=S)NC(=O)c2cc(OC)c(OC)c(OC)c2)nc1C | . | . | -0.2 | . | 1
C[N+]1(C)C2CCC1CC(OC(=O)c1ccccc1)C2 (stereo unspecified) | . | -7% | -3.5 | . | -6
Cc1cc(NC(=O)c2ccc([N+](=O)[O-])cc2Cl)ccc1NC(=O)c1ccco1 | -35 | -1% | -2.6 | -6 | 1
CC(C(=O)Nc1cc(C(F)(F)F)ccc1N1CCOCC1)N1C(=O)C2CC=CCC2C1=O (stereo unspecified) | -54 | -7% | -2.3 | 8 | -6
CC1=C(C(=O)OCC(C)C)C2(O)C(=O)c3ccccc3C2(O)N1 (stereo unspecified) | 69* | -2% | 20 | -11 | 7
CCOc1ccc(OCCSc2nc3ccccc3n2CC(=O)O)cc1 | . | . | -2.4 | . | 1

Part of the list above in order of length of the SMILES, smallest number first.
SMILES | YopH inh | Mtb H37Rv | RecA splice inh | Arbovirus anti | Mtb betalactam | others
COC(=O)NNC(=S)Nc1ccc(Br)cc1 | . | -3% | 4.3 | 2 | 0
CC1=C(C(=O)OCC(C)C)C2(O)C(=O)c3ccccc3C2(O)N1 (stereo unspecified) | 69* | -2% | 20 | -11 | 7
COC(=O)c1sc(NC(=S)NC(=O)c2cc(OC)c(OC)c(OC)c2)nc1C | . | . | -0.2 | . | 1
COc1ccccc1CC(=O)Nc1ccc(-c2noc(COc3ccc(Cl)c(C)c3)n2)cc1 | 12 | -2% | -0.4 | 8 | -23
CCCOc1ccc(C2NC(=S)NC(c3ccccc3)=C2C(=O)Nc2ccc(C)cc2)cc1OC (stereo unspecified) | 1 | 17% | -1.7 | -3 | 19

(continued)
SMILES | YopH inh | Mtb H37Rv | RecA splice inh | Arbovirus anti | Mtb betalactam | others
Nc1cc(-c2cccc(F)c2)nn1S(=O)(=O)c1cccc2nsnc12 | -24 | 5% | 2.3 | 1 | -6 | Arbovirus anti repeat=1
CCCCn1nc(C(=O)Oc2ccc3c(C)cc(=O)oc3c2)c2ccccc2c1=O | -5 | ? | -7.0 | -7 | 84
COc1ccc2nc(SCC(=O)N3CCNC3=O)[nH]c2c1 | -27 | -2% | -2.6 | -3 | -1
c1ccc(CCC2CCCCN2Cc2nc(C3CC3)no2)cc1 (stereo unspecified) | . | 7% | 1.8 | -8 | 4
O=C(O)CC1=C(c2ccc(F)cc2)CCC1=O | -16 | -6% | -3.0 | 5 | -3
Cc1ccccc1NC(=O)CSc1ccncc1 | . | 12% | -0.4 | . | -1
